GLA inh pH 4.5 – blocks human alpha-galactosidase A at pH 4.5 | 230,000 tested, under 10 active | activity change, negative = inhibition, % at 105 µM | AID 1467 | purified enzyme, 4-MU-alpha-Gal fluorescence, pH 4.5; inconclusive = small, poorly fitted or top-dose-only inhibition, or a rising curve; inactive = flat fitted curve, though single readings scatter; no compound was filed as active;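 also: 0% = full activity with enzyme and -100% = basal without enzyme; dose as in the result columns while the protocol names 77 µM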
Rango release inh – inhibitors of RanGTP-induced Rango-importin beta complex dissociation | Biochemical FRET Rango-importin beta, RanGTP-induced dissociation | Potency, µM (series often up to 46.1 µM), for inactives: at the top dose activity change, negative = inhibition | 340,000 tested, 0.071% active | AID 540253; active means falling FRET ratio curve, often poorly fitted, with flat reads before Ran was added; inconclusive means other falling curves, or compound fluorescence or quenching; inactive means flat or rising ratio curve;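 also: potency is read from the fitted curve at half-maximal effect; % of control where 0% means no effect; nearly all actives have a fitted effect of over 45% in size; -100% = wells without RanGTP and RCC1; the record marks most hits as doubtful in a second field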
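FRET read at 45 min, room temperature: inhibitors block the CFP/YFP signal rise when RanGTP (0.6 uM Ran, 2 mM GTP, 0.2 uM RCC1) frees Rango (0.1 uM) from importin beta (0.25 uM). Pre-read after 5 min compound exposure flags interference.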
miR-21 FLuc – miR-21 reporter, rising signal | HeLa miR-21 FLuc reporter, luciferase, 48 h | Potency, µM (doses to about 38.3 µM), inactives show at the top dose reporter change, positive = more light | 340,000 tested, under 10 active; active = well fitted rising curve with a large enough effect; inconclusive = small, poorly fitted or top-dose-only effect; inactive = no such curve, though single readings can be large or run the other way;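 also: % of control where 0% means no effect; miR-21 action dims this reporter so a rising signal means less miR-21 action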
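Compounds were titrated across several concentrations (up to approximately 40 uM) and incubated 48 hours with HeLa miR-21-FLuc reporter cells (miR-21 target sequence downstream of FLuc, endogenous miR-21). Readout was firefly luciferase luminescence after lytic detection reagent.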
Rango complex inh – prevents formation of the Rango-importin beta complex; AID 540263; Q14974; Potency, µM (highest dose often 92.2 µM), for inactives: top-dose inhibition of complex formation; 340,000 tested, 0.031% active; Rango CFP/YFP FRET sensor + importin beta, 45 min; active = rising FRET ratio curve, often small or poorly fitted; inconclusive = mostly compound fluorescence or quenching in the first reads; inactive = flat curves in all reads;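 also: potency is read from the fitted curve at half-maximal effect; 0% = DMSO wells and 100% = buffer wells lacking importin beta; nearly all actives have a fitted effect of over 15% in size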
Target sequence (Q14974 whole entry, looked up): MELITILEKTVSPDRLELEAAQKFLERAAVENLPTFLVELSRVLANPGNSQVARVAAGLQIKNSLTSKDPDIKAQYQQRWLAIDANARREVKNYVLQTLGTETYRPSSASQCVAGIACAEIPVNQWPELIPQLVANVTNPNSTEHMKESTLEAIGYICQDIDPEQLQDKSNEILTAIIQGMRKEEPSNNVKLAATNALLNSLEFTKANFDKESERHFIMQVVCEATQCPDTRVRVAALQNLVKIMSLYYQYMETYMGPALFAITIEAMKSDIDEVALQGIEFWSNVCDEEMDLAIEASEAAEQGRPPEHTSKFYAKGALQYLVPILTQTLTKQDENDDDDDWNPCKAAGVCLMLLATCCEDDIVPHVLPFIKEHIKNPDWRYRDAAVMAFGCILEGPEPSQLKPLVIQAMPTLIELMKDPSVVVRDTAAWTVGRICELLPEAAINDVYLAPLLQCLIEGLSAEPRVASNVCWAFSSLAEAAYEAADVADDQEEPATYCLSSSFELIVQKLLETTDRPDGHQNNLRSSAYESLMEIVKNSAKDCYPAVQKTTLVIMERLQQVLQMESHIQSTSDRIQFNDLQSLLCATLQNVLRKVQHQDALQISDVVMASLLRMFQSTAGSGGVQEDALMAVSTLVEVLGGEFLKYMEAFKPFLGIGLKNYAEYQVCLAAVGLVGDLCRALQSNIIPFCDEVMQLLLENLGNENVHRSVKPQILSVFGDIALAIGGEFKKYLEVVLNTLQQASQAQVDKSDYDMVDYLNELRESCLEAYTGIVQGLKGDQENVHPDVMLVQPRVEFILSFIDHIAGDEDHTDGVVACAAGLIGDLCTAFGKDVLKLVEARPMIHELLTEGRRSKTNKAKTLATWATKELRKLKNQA
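Inhibition scored from the CFP 486 nm/YFP 530 nm FRET ratio 45 min after adding 0.125 microM importin beta to 50 nM Rango biosensor preincubated 5 min with compound (room temperature, PBS with DTT, Tween-20, BSA). No-importin wells as positive control.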
An asterisk follows results filed as active; ? = inconclusive; · = not tested or not shown; & = joins results of further samples. An excerpt. The share of hits here may be higher or lower than overall.

Results follow in this order: GLA inh pH 4.5 | Rango release inh | miR-21 FLuc | Rango complex inh
- CCCOc1ccc(C2NC(=O)NC(c3ccccc3)=C2C(C)=O)cc1OCC (configuration not stated)
    -7 | 12% | -5% | -1.5%
- O=C(N/N=C/c1cccc(OC(=O)c2ccco2)c1)c1ccc(F)cc1
    -2 | -1% | -48% | -1.1%
- CCC(=O)NCc1cc(-c2nn(C)c(=O)c3ccccc23)ccc1C
    2 | 0% | -5% | 2.5%
- CCOC(=O)[C@@H]1[C@H]2COc3ccccc3[C@@H]2N2C(=O)N(c3ccc(OC)cc3)C(=O)[C@@]12C
    · | 7% | -1% | -0.1%
- COc1ccc(/C=N/n2c(C)cc(C)c(C(N)=O)c2=O)cc1
    0 | 6% | -2% | 1.1%
- Cc1ccc[n+](CC(=O)Nc2cccc([N+](=O)[O-])c2)c1
    9 | 7% | 0% | -0.1%
- Cc1cccc2sc(N(CCCN(C)C)C(=O)c3ccc(C(=O)c4ccccc4)cc3)nc12
    · | -4% | ? | 3.8%
- CCN1C(=O)C(CC(=O)Nc2ccccc2)N(Cc2ccccn2)C1=S (configuration not stated)
    -10 | -10% | 4% | -2.2%
- Cc1nn(-c2ncc(C(F)(F)F)cc2Cl)c(=O)n1-c1cccc(Cl)c1
    2 | -1% | -3% | 4.3%
- Cc1cc(OC(=O)N2CCOCC2)cc(C)c1Cl
    12 | -2% | -2% | -1.0%
- CC(=O)Nc1ccc2c(c1)C(=Nc1ccccc1)c1ccccc1-2
    · | -2% | · | 1.9%
- CC(=O)c1ccc2noc(-c3cccc(F)c3)c2c1
    · | -11% | 1% | ?
- CCOC(=O)C1CCN(C(=O)c2ccc(SC)cc2OC)CC1
    5 | 10% | -2% | -2.0%
- C[C@H](CO)N1C[C@H](C)[C@@H](CN(C)S(=O)(=O)c2ccc(F)cc2)Oc2ccc(NC(=O)C3CCCCC3)cc2C1=O
    · | -3% | · | 0.8%
- CC(C)Cn1nc(C(=O)Nc2cccc(S(=O)(=O)N3CCCC3)c2)c2ccccc2c1=O
    · | -4% | · | -3.2%

Next section, starting with the last 6 of the part before.
Results follow in this order: GLA inh pH 4.5 | Rango release inh | miR-21 FLuc | Rango complex inh
- Cc1cc(OC(=O)N2CCOCC2)cc(C)c1Cl
    12 | -2% | -2% | -1.0%
- CC(=O)Nc1ccc2c(c1)C(=Nc1ccccc1)c1ccccc1-2
    · | -2% | · | 1.9%
- CC(=O)c1ccc2noc(-c3cccc(F)c3)c2c1
    · | -11% | 1% | ?
- CCOC(=O)C1CCN(C(=O)c2ccc(SC)cc2OC)CC1
    5 | 10% | -2% | -2.0%
- C[C@H](CO)N1C[C@H](C)[C@@H](CN(C)S(=O)(=O)c2ccc(F)cc2)Oc2ccc(NC(=O)C3CCCCC3)cc2C1=O
    · | -3% | · | 0.8%
- CC(C)Cn1nc(C(=O)Nc2cccc(S(=O)(=O)N3CCCC3)c2)c2ccccc2c1=O
    · | -4% | · | -3.2%
- Cc1cc(N2CCN(Cc3nc(-c4ccc(F)cc4)oc3C)CC2)cc(C)n1
    -1 | -9% | 2% | 0.2%
- C=CCNC(=O)c1ccc2nc(Cc3ccc(OC)cc3)oc2c1
    · | -1% | · | 0.8%
- CC(C)(C)CC(=O)NC(=S)Nc1ccccc1C(F)(F)F
    -1 | -1% | 1% | -2.1%
- CCOC(=O)c1sc(NC(=O)COc2ncnc3ccccc23)c(C(=O)OCC)c1C
    5 | 1% | -10% | -1.5%
- O=C1COc2ccc(S(=O)(=O)N3CCN(c4ccccc4F)CC3)cc2N1
    · | -16% | 13% | -1.2%
- S=C(Nc1ccccc1Cl)N1CCCCCC1
    -2 | 0% | -9% | 2.6%
- O=C(COC(=O)c1ccc(Cl)c(Cl)c1)NC1CCCC1
    · | 3% | 0% | -0.7%
- O=C(O)c1ccc(Cl)c(S(=O)(=O)NCc2ccco2)c1
    8 | -15% | -1% | 3.5%
- COc1ccc(C2=NN(CN3C(=O)C(=O)c4ccccc43)C(c3cccc([N+](=O)[O-])c3)C2)cc1 (configuration not stated)
    -1 | -6% | -19% | 4.3%
- CCN(CC)CCCN1C(=O)C(=O)/C(=C(/O)c2ccc(Cl)cc2)C1c1ccccn1 (configuration not stated)
    -7 | -14% | -2% | 0.1%
- Oc1ccc(C2N=C(c3ccccc3)NC(c3ccccc3)=N2)cc1
    7 | 4% | -1% | 0.0%
- C=C(C)CN(CC)C(=O)CN1C(=O)NC(C)(c2ccc3ccccc3c2)C1=O (configuration not stated)
    · | 5% | 1% | -0.5%
- O=C(NC1CCCCC1)C(c1ccccc1)N(C(=O)c1cccs1)c1ccc2c(c1)OCO2 (configuration not stated)
    2 | 20% | -1% | -2.8%
- O=C1NC2(CCC3(CC2)OCCO3)NN1c1ccc(Cl)cc1
    8 | 14% | -3% | 0.9%
- CN(C(=O)Cn1c(Cl)nc2c1c(=O)n(C)c(=O)n2C)C1CCS(=O)(=O)C1 (configuration not stated)
    · | 3% | · | -4.8%

The results go on:
Results follow in this order: GLA inh pH 4.5 | Rango release inh | miR-21 FLuc | Rango complex inh
- CSc1ccc(CN2C(=O)NC3(CCCCCC3)C2=O)cc1
    -20 | 0% | 4% | 8.2%
- Cc1ccc(-c2nnc(-c3ccc4c(c3)OCO4)o2)cc1
    · | -8% | -57% | -0.6%
- CCCS(=O)(=O)Nc1ccc(Nc2c3ccccc3nc3ccccc23)c(OC)c1
    · | -28% | · | ?
- CSc1ccccc1OCc1cc(C(=O)N(C)CC2COCCO2)no1 (configuration not stated)
    · | -3% | -39% | -1.0%
- COc1ccc(NC(=O)Nc2ccccc2SC)c(OC)c1
    4 | -15% | -1% | -1.9%
- C=CCN(C(=O)CSc1nc2[nH]ncc2c(=O)n1-c1ccccc1OC)c1ccccc1
    -6 | 0% | -1% | -3.5%
- Cc1ccc(S(=O)(=O)N2CCN(C(=O)c3ccc(N4CCCC4)c([N+](=O)[O-])c3)CC2)cc1
    · | 16% | 0% | 2.2%
- Cn1c(SCC(=O)NCCc2ccccc2)ncc(C(=O)Nc2ccccc2)c1=O
    · | -12% | · | 0.5%
- CC1CCN(C(=O)c2ccc3c(c2)NC(=O)/C(=C/c2ccccc2)S3)CC1
    · | -8% | -2% | ?
- NC1=NS(=O)(=O)NC1c1ccc(F)cc1 (configuration not stated)
    -5 | -9% | -1% | 3.0%
- COc1ccccc1C1CCN(c2ccc(CO)cc2[N+](=O)[O-])CC1
    -15 | 5% | -15% | -1.7%
- O=C(COc1ccccc1)Nc1nnc(S(=O)(=O)N2CCCCCC2)s1
    · | 31% | -1%&4% | 0.3%
- CCOc1ccc(S(=O)(=O)NCCC(=O)OCC(=O)N2CC(=O)Nc3ccccc32)cc1
    -10 | 9% | -3% | -3.1%
- O=C(Cc1ccc(Cl)cc1)Nc1ccc(NC(=O)c2ccccc2)cc1
    4 | 0% | -15% | 3.7%
- CNC(=S)N(C)c1ccccc1
    4 | -2% | 1% | 3.1%

The list goes on.
Results follow in this order: GLA inh pH 4.5 | Rango release inh | miR-21 FLuc | Rango complex inh
- Nc1cccnc1Oc1ccc(F)cc1F
    1 | 18% | -3% | 0.1%
- O=C1C(=NO)CC(c2ccccc2)N1c1ccccc1 (configuration not stated)
    · | 2% | · | 3.0%
- COc1cc(CCNC2=CC(=O)c3ncccc3C2=O)ccc1O
    · | -21% | · | -1.7%
- COc1ccc(NS(=O)(=O)c2cccc(NC(=O)C3=NN(c4ccccc4)C(=O)CC3)c2)cc1
    · | 15% | 22% | 0.5%
- N#Cc1cccc(NC(=O)COC(=O)CCc2ccc(S(=O)(=O)N3CCOCC3)cc2)c1
    · | -12% | · | 1.4%
- CCOc1ccc(OCC)c(S(=O)(=O)NNC(=O)c2c(C)nc3ccccn23)c1
    -8 | 15% | -5% | 1.5%
- CC(C)(C)N(Cc1ccccc1)C(=O)c1ccc2c(c1)OCCO2
    -2 | 2% | -7% | 2.7%
- COc1ccc(CCNC(=O)Cn2nnc(-c3cccs3)n2)cc1OC
    -12 | -10% | 0% | -5.2%
- CCOc1ccc(S(=O)(=O)N(CC)CC(=O)NCc2ccncc2)cc1
    · | -7% | -4% | 1.6%
- CN(Cc1cc2cc(F)ccc2[nH]1)Cc1nc(-c2cnccn2)no1
    -11 | 8% | 0% | -1.3%
- O=C(CNC(=O)c1ccc2ccccc2c1)Nc1ncccc1O
    · | -17% | · | 0.0%
- Cc1ccc2c(CC(=O)N3CCN(S(=O)(=O)c4cccs4)CC3)coc2c1
    -5 | -7% | 0% | -0.4%
- CCCN(C(=O)c1c(-c2ccccc2)noc1C)c1c(N)n(Cc2ccccc2)c(=O)[nH]c1=O
    · | 4% | · | -2.9%
- COc1cccc(CN2CCN(c3nc4nonc4nc3N3CCCCC3)CC2=O)c1
    -9 | -3% | -2% | -3.0%
- CS(=O)(=O)N1CC(C(=O)NC2CCCC2)Oc2ccc(Cl)cc21 (configuration not stated)
    -23 | -6% | -1% | -2.5%

Carrying on:
Results follow in this order: GLA inh pH 4.5 | Rango release inh | miR-21 FLuc | Rango complex inh
- CN(C)S(=O)(=O)c1ccc2c(c1)nc1n2CCC1
    0 | -1% | -6% | 0.8%
- Cc1ccccc1C(=O)N(Cc1cccs1)C1CCS(=O)(=O)C1 (configuration not stated)
    · | -1% | 0% | -2.2%
- O=C(Nc1ccccc1F)c1ccc(CSc2ccccc2)o1
    -3 | 2% | -53% | 0.4%
- CNc1ccc(C2(O)C(=O)c3ccccc3C2=O)cc1
    -5 | -4% | -4% | -5.1%
- COn1c(SCc2ccc(Cl)cc2)nc2ccccc2c1=O
    0 | 6% | -20% | -1.5%
- Cc1csc(=O)n1CCC(=O)NCc1ccc(F)cc1
    · | 10% | · | 7.0%
- CCC(=O)N1CCc2cc(S(=O)(=O)NC(C(=O)N3CCN(c4ccc(F)cc4)CC3)C(C)C)ccc21 (configuration not stated)
    · | -4% | 0% | 4.5%
- Nc1nc(Cl)cc(Nc2ccccc2Cl)n1
    4 | -5% | -56% | -0.7%
- CCCCN(CC)C(=O)c1ccc(Cl)cc1
    1 | 15% | -2% | 2.3%
- Cc1ccc(S(=O)(=O)N2CCN(C(=O)N3CCOCC3)C2C)cc1 (configuration not stated)
    -4 | -12% | 2% | -0.6%
- COCCCNc1ncnc2ccc(C)cc12
    0 | 20% | -14% | -0.5%
- CC1CCCC(C)N1S(=O)(=O)c1ccc(S(=O)(=O)NCc2ccccc2)cc1 (configuration not stated)
    1 | -5% | -6% | 13%
- Cc1ccc(NC(=O)CN2C(=O)NC3(CCc4ccccc43)C2=O)cc1 (configuration not stated)
    -10 | 0% | -9% | 3.6%
- O=Cc1cn(CC(=O)Nc2ccc(F)cc2)c2ccccc12
    1 | 10% | 9% | 1.8%
- CCOC(=O)c1cnc2cc(C)nn2c1-c1ccccc1
    2 | 7% | -21% | 2.8%

The results go on.
Results follow in this order: GLA inh pH 4.5 | Rango release inh | miR-21 FLuc | Rango complex inh
- C=CCn1c(SCC(=O)NC2CCCCC2)nnc1-c1ccc(OC)cc1
    0 | 2% | -17% | -1.3%
- COc1cccc(C(=O)NCCSCc2c(F)cccc2Cl)c1
    · | 32% | -38% | 4.1%
- CCOCCCNC(=O)c1cc(Nc2ccc(OC)cc2OC)nc2ccccc12
    · | 0% | 6% | -5.6%
- COc1ccc(-c2oc3ccc(-c4cc(OC)c(OC)c(OC)c4)cc3c2C(=O)c2ccc(OC)nc2)cc1
    · | 0% | -1% | 0.3%
- CCCc1ccc(-c2cc(C(=O)N3CCN(c4ccccn4)CC3)c3ccccc3n2)cc1
    · | -3% | -30% | -1.9%
- CC(C)N(CCc1ccncc1)C(=O)Nc1ccc(F)cc1
    -3 | 2% | -14% | -2.0%
- CN(C)CCNc1ncnc2c1sc1nc(N3CCOCC3)c3c(c12)CC(C)(C)SC3
    -1 | -14% | -17% | 1.6%
- Cn1cnnc1SCC(=O)Nc1ccc(S(=O)(=O)N2CCOCC2)cc1
    · | -9% | · | 6.3%
- COc1ccccc1NC(=O)CSCc1ccc([N+](=O)[O-])cc1
    -5 | 11% | -6% | -4.9%
- Fc1ccc(CSc2nncn2NCc2ccc3c(c2)OCO3)cc1
    -2 | -10% | 0% | -1.4%
- Cc1ccc(S(=O)(=O)N2CCOCC2)cc1NC(=O)COc1ccc2c(C)cc(=O)oc2c1
    · | 5% | 10% | 1.8%
